AmpC nodet inh – Promiscuous and Specific Inhibitors of AmpC Beta-Lactamase (assay without detergent). P00811. AmpC nitrocefin hydrolysis, absorbance 480 nm, no detergent; potencies from a single point are estimates. Potency, µM (highest dose often 28.7 µM), for inactives: top-dose activity change, negative = inhibition. 71,000 tested, 1.8% active; active = falling curve, for most hits resting on a single point; inconclusive = weak or doubtful change; inactive = flat or rising curve; note: % of control where 0% means no effect; about half of the hits show no inhibition at the top dose; a quarter of the inactives give rising signals
Target sequence (P00811 whole entry, looked up): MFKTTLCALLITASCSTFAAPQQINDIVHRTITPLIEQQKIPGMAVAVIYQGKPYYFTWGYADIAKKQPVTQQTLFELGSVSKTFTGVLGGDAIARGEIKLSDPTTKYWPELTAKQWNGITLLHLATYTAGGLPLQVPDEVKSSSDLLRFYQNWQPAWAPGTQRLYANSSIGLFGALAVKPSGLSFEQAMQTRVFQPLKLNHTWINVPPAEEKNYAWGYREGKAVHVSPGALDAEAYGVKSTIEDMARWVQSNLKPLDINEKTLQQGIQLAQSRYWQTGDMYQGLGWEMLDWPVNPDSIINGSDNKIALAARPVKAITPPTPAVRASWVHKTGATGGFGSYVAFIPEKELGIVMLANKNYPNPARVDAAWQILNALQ
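Enzyme, pH 7.0 phosphate. Compound titrations were pre-incubated with AmpC for 15 min at room temperature before nitrocefin (stock 800 uM) addition; product formation was recorded at 480 nm every 20 s for 4 min.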
Active calls of the source: *; [ ] = dose if it differs, or a comment. Potency is the fitted concentration of half-maximal effect. This is a subset, so the mix of outcomes need not match the whole.

SMILES | AmpC nodet inh
CC(=O)Nc1nc2n(n1)C(c1ccc(Cl)cc1)C=C(C)N2 (stereo unspecified) | -5%
CCCc1cc(=O)[nH]c(NCc2ccc(Cl)cc2)n1 | -9%
CCOc1ccccc1-c1cc(-c2ccc(OC)cc2)nc2c1c(=O)n(C)c(=O)n2C | 65%
COc1ccc2c(c1)C(C)=CC(C)(C)N2C(=O)CNCc1ccc2c(c1)OCO2 | 55%
N#Cc1nc(-c2ccc(OCc3ccccc3)cc2)oc1NCc1ccco1 | -22%
CCOc1ccccc1OCC(O)CNC (stereo unspecified) | -2%
CCCCC/C=C\C[C@H](O)/C=C\c1cccc(C[C@H](O)CCCCO)n1 | 137%
COCc1[nH]nc2c1C(c1ccccc1Cl)C(C#N)=C(N)O2 (stereo unspecified) | 4%
O=C(O)c1cc2ccccc2c(S(=O)(=O)O)c1O | -5%[5.75 µM]
Cc1cc2ccccc2c(=O)n1CC(=O)NCC(=O)N(C)Cc1ccccc1 | 21%
CCOc1ccc(S(=O)(=O)N(C)c2ccc(OCC(=O)OCc3c(C)noc3C)cc2)cc1 | 36%
COc1ccc(NC(=O)N2CCCC2C(=O)Nc2ccc(C)c(Cl)c2)cc1 (stereo unspecified) | 7%
Cc1cc(C)nc(N2CCC(C(=O)Nc3ccc4c(c3)CCC4)CC2)n1 | 3%
CC(=O)NBr | 12%
COc1cccc(-c2nccc(NCc3cccs3)n2)c1 | 29%
O=C(NCCc1ccccc1)c1ccccc1NS(=O)(=O)N1CCCC1 | -10%
Cc1ccc2c(c1)NC(=O)C(CC(=O)N(C)Cc1ccccc1)O2 (stereo unspecified) | 18%
c1ccc(OCCN2C3=NCCN3c3ccccc32)cc1 | 22%
CCOC(=O)c1cc(CC)sc1N | 2%
CCCC[C@@H]1C[C@H]1[C@@H](NP(=O)(c1ccccc1)c1ccccc1)c1ccccc1OC | 8%
Cc1ccc(S(=O)(=O)N2CCN(C(=O)c3ccc(OCc4c(C)noc4C)cc3)CC2)cc1 | 108%
COc1ccc(N(CC(=O)Nc2ccc3c(c2)OCCO3)S(C)(=O)=O)c(OC)c1 | 25%
C=C1C(CCl)(CCl)C2(Cl)C(Cl)C(Cl)C1(Cl)C2(Cl)Cl (stereo unspecified) | -17%
O=C(NCCN1CCOCC1)c1cc2ccccc2o1 | 9%
O=C(NCc1ccccc1)c1cccnc1N1CCOCC1 | -18%
O=C1NC(=S)NC(=O)C1=Cc1cccc2cc3ccccc3cc12 | -8%[5.75 µM]
c1ccc2c(c1)c1cccc3ccc4cccc2c4c31 | 0%
Cc1cc(OCC(=O)NCCCN2CCOCC2)cc(C)c1Cl | 35%
C[C@@H](C(=O)Nc1ccc2ccccc2c1)[C@@H]1C[C@@]1(C)[C@@H](NC(=O)OCc1ccccc1)c1ccccc1 | -20%
CCCCCC(=O)Nc1ccc(N2CCN(CC)CC2)c(Cl)c1 | 3%

Given as labelled records: part of the list above.
molecule: CCCC[C@@H]1C[C@H]1[C@@H](NP(=O)(c1ccccc1)c1ccccc1)c1ccccc1OC
  AmpC nodet inh: 8%

molecule: Cc1cc2ccccc2c(=O)n1CC(=O)NCC(=O)N(C)Cc1ccccc1
  AmpC nodet inh: 21%

Next section
SMILES | AmpC nodet inh
O=C(c1cccc(-n2cnnn2)c1)N1CCOCC1 | -1%
Cc1cc(N2CCC(C(=O)NC3CC3)CC2)nc(-c2ccccc2)n1 | 36%
Fc1cnc(N2CCN(c3ccccc3)CC2)nc1N1CCN(c2ccccc2)CC1 | 5%
CC(C)C(=O)Nc1cccc(-c2nc3ccccc3o2)c1 | 11%
CCCS(=O)(=O)N1CCC(C(=O)NCCc2ccc(OC)c(OC)c2)CC1 | 2%
COc1ccc(-c2nc3cnc(Oc4ccccc4)nc3n(Cc3cccs3)c2=O)cc1 | 8%
O=C(Nc1ccc(F)cc1F)c1noc2c1CCC2 | -14%
CCOC(=O)C1CCN(C(=O)CCc2ccccc2)CC1 | 14%
CCOC(=O)c1sc2ccc(S(=O)(=O)N3CCCCC3)cc2c1N | 18%
CCOC(=O)c1ccc(NC(=O)N2CCN(c3ccccn3)CC2)cc1 | 4%
CC(=O)c1cccc(NC(=O)N2CCCc3ccccc32)c1 | 2%
CCOC(=O)C1CCN(C(=O)CN(c2ccc(Cl)c(C(F)(F)F)c2)S(C)(=O)=O)CC1 | 114%
CCC(=O)N1CCN(c2ccccc2NC(=O)c2cccc(C)c2)CC1 | 52%
O=C(NCC(c1cccnc1)N1CCN(c2ccc(F)cc2)CC1)c1cccc(Cl)c1 (stereo unspecified) | 76%
CCN(CC)C(=O)CSc1nc(C)cc(-c2cccs2)c1C#N | 14%
O/N=C1\CCCc2oc3c(c21)CCCC3 | -8%
CC#N | -3%
O=c1cnc2cnc(N3CCOCC3)nc2n1CCc1ccccc1 | 0%
Cc1ccccc1C1=NCC(=O)N(CC(=O)NCc2ccco2)c2sc3c(c21)CCCC3 | 62%
COc1ccc(CNC(=O)C(C#N)c2nc3ccccc3nc2N2CCN(C)CC2)cc1 (stereo unspecified) | 141%
O=C(COc1ccccc1)N1CCNC1=O | 0%
O=C1NC2(Nc3ccccc31)C(=O)Nc1ccccc12 (stereo unspecified) | -9%
CC(=O)c1ncnn1CC(=O)c1ccc(Cl)cc1Cl | 0%
CCC(=O)Nc1nc2ccccc2n1CCN1CCOCC1 | -2%
COc1cccc(C(=O)N(CN2CCCC2=O)c2ccccc2OC)c1 | 7%
CC(=O)NCCSC(=O)c1ccc(F)cc1 | 0%
CCCC(CCC)C(=O)Nc1ccncc1 | 6%
c1ccc(-n2nnnc2-n2cnc3ccccc32)cc1 | -4%
CC1CCCC(C)N1S(=O)(=O)c1ccc(NC(=O)c2ccccc2C(=O)N2CCOCC2)cc1 (stereo unspecified) | 69%
CCNc1ccc(C(=O)OCC)cc1NC(=O)c1cccc(S(=O)(=O)N2CCOCC2)c1 | 106%

SMILES | AmpC nodet inh
CCOc1ncccc1C(=O)OCC(=O)Nc1cc(C(=O)OC)ccc1C(=O)OC | -2%
COc1ccc([C@@H](Nc2ncccn2)c2cc3c(cc2O)OCO3)cc1 | -3%[5.75 µM]
COC(=O)c1ccccc1NC1c2ccccc2C(=O)N1c1cccnc1 (stereo unspecified) | 4µM*[single pt active]
c1ccc(-c2nc(N3CCCCCC3)c3ccccc3n2)nc1 | 48%
COc1cccc(NC(=O)c2ccc3c(c2)N(CC(=O)N2CCCCC2)C(=O)C(C)(C)O3)c1 | 131%
N#Cc1cccc(-c2nc(NCc3ccccc3)c3ccccc3n2)c1 | -6%
Cc1cc(OCC(=O)NCCN2CCOCC2)cc(C)c1Br | 86%
CCCCn1c(SCc2c(C)noc2C)nc2cc(S(N)(=O)=O)ccc21 | 16%
COc1ccccc1N(C(C)=O)C1SC(=O)N(c2ccccc2)C1=O (stereo unspecified) | 13%
CCC(C)N(C(=O)COC(=O)c1cn(CC)c2nc(C)ccc2c1=O)C1CCS(=O)(=O)C1 (stereo unspecified) | 0%
CCC/C=C(\CCC)C(NS(=O)(=O)c1ccccc1)c1ccc(C(F)(F)F)cc1 (stereo unspecified) | 13µM*[single pt active]
O=C1CN(c2nc3ccccc3n3cnnc23)CC(=O)N1CCc1ccccc1 | 85%
CCOC(=O)N1CCN(S(=O)(=O)c2ccc(OC)c(Cl)c2)CC1 | 47%
CN1C(=S)SC(N(O)C(=O)NC2CCCCC2)C1(C)C (stereo unspecified) | 4%
CC(C)CC(=O)N1CCN(C(=O)CCC2CCCC2)CC1 | 38%
CN[C@@H](C)[C@H]1CC[C@@H](N)[C@@H](O[C@@H]2[C@@H](O)[C@@H](O[C@H]3OC[C@@](C)(O)[C@@H](NC)[C@@H]3O)[C@H](N)C[C@@H]2N)O1 (tested in a mixture with another compound) | -6%[12.8 µM]
C=CCn1c(Cc2cccs2)nnc1SCC(=O)c1cccc(Br)c1 | 9%
CN(C)CCNc1nc2c(c(=O)[nH]c(=O)n2C)n1CCCc1ccccc1 | -9%
COc1cc(S(=O)(=O)NC2CCCCC2C)ccc1Cl (stereo unspecified) | -1%
CN(Cc1nc2ccccc2n1C)S(=O)(=O)c1ccc(F)cc1 | 7%
COCCCn1c(SCC(=O)OC2CCCCC2)nnc1-c1ccco1 | 26%
CCC(=O)Nc1ccc(C(=O)n2ccc(C)n2)cc1 | -12%
COc1cc(C)c(Cl)cc1S(=O)(=O)N(C)C | 10%
COC(=O)c1[nH]c(C)c(/C(O)=C2\C(=O)C(=O)N(CCN(C)C)C2c2cc(OC)ccc2OC)c1C (stereo unspecified) | 14%
NCCNCC1CCNCC1 | 0%[5.75 µM]
COc1ccc(CCNC(=O)c2nnn(CC(=O)Nc3ccccc3)c2N)cc1OC | 18%
CC1(C)CCCN(C(=O)c2coc(=O)c(Br)c2)C1 | -1%
CCn1c(Cc2cccs2)nnc1SCC(=O)Nc1ccc(OC)c(OC)c1 | 32%
CC1CN(S(=O)(=O)c2cccc(C(=O)OCC(=O)Nc3ccc4c(c3)OCO4)c2)CC(C)O1 (stereo unspecified) | 29%
C/C(CCc1oc2ccccc2c1-c1ccc(C)o1)=N/O | 25%

SMILES | AmpC nodet inh
CS(=O)(=O)N1CCC[C@@]2(CCN(Cc3ccc(C#N)cc3)C2)C1 | -5%
COc1cccc(-c2ccc3ncnc(Nc4ccccc4)c3c2)c1 | -17%
CC(C)Cn1c(Br)nc2c1c(=O)n(CCC#N)c(=O)n2C | 6%
CN1CCN(c2ncncc2-c2ccc(C(=O)N(C)C)cc2)CC1 | -4%
c1cc(C(c2nnnn2C2CCCC2)N2CCOCC2)ccn1 (stereo unspecified) | 4%
O=C(O)CSc1c2c(nc3cc(C(=O)N4CCOCC4)ccc13)CCCC2 | 13%
CN(Cc1ccco1)c1ncnc2ccc(-c3ccc4c(c3)OCO4)cc12 | 62%
CCOC(=O)c1sc(N(Cc2ccccc2)C(=O)CN2C(=O)CN(C)C2=O)nc1C | 108%
O=C(CN(Cc1ccccc1)S(=O)(=O)c1ccccc1)NC1CC1 | 18%
CCCc1cc(Nc2cccc(OC)c2)n2ncnc2n1 | 10%
COc1cc(CNCCO)ccc1OCC(=O)Nc1ccc(Br)cc1 | 19%
N#Cc1ccccc1Cn1c(-c2cscn2)nc2ccccc21 | 33%
CCN(CC)S(=O)(=O)c1ccc(-c2nnc(SCc3nnc(-c4ccccc4)o3)o2)cc1 | -3%
Brc1ccc(-c2nnc3sc(CNCc4ccc5c(c4)OCO5)cn23)cc1 | 4µM*[single pt active]
CC(C)CC(c1nnnn1Cc1ccccc1)N1CCN(C(=O)c2ccco2)CC1 (stereo unspecified) | 86%
COc1cc2nc(SCC(=O)NC3CC3)n(CCC3=CCCCC3)c(=O)c2cc1OC | 39%
Cc1cc(N2C(=O)C3C4C=CC(C4)C3C2=O)no1 (stereo unspecified) | -9%
CCCc1cc2c(n1CCO)C(C)C1CN(C(=O)c3ccccc3)C(C)(C(=O)OC)C21 (stereo unspecified) | 127%
N#CC(=C1SC=CS1)c1nc(-c2ccccc2)cs1 | 16µM*[single pt active]
Cn1c(=O)c2c(nc(Br)n2Cc2c(F)cccc2Cl)n(C)c1=O | 12%
COc1ccc(C)cc1NC(=O)c1ccc(NC(=O)CC2SC(N3CCCC3)=NC2=O)cc1 (stereo unspecified) | 124%
NC(=O)C1CCN(Cc2nnnn2Cc2ccco2)CC1 | 3%
Cc1ccc(CCCC(=O)O)cc1C | 6%[5.75 µM]
N[C@H](Cc1ccccc1)c1nn[nH]n1 | 4%[5.75 µM]
O=C(c1cnccn1)N(c1ccccc1)C1(C(=O)NC2CCCCC2)CCCCC1 | 70%
CN(C)c1ccc(NC(=S)c2ccccn2)cc1 | 7%
Nc1ccccc1O.O.O=C(O)[C@H]1[O][Sb][O][C@H]1C(=O)O | -5%[5.75 µM]
O=C(NCCc1ccccc1)C1CCN(S(=O)(=O)c2cccc3nonc23)CC1 | 0%
CCOC(=O)c1c(NC(=O)CN2CCN(c3ccccn3)CC2)sc2c1CCCC2 | 12%
COc1c2occc2cc2ccc(=O)oc12 | 4%
C[C@H]1CC[C@@H]2[C@@H](C)[C@H]3[C@H](C[C@H]4[C@@H]5CC=C6CC(O[C@@H]7O[C@H](CO)[C@H](O)[C@H](O[C@@H]8O[C@H](CO)[C@@H](O)[C@H](O)[C@H]8O)[C@H]7O[C@H]7O[C@@H](C)[C@H](O)[C@@H](O)[C@H]7O)CC[C@]6(C)[C@H]5CC[C@]34C)N2C1 (stereo partly specified) | 124%
CCOC(=O)CSC1=C(C#N)C(c2ccccc2OCC)C(C#N)C(=O)N1 (stereo unspecified) | -1%
COc1ccc2c(-c3ccccc3)cc3nnnn3c2c1 | 6%

Structures from the list above containing two or more sulfur atoms:
SMILES | AmpC nodet inh
CCOC(=O)c1sc2ccc(S(=O)(=O)N3CCCCC3)cc2c1N | 18%
CCN(CC)C(=O)CSc1nc(C)cc(-c2cccs2)c1C#N | 14%
CCCCn1c(SCc2c(C)noc2C)nc2cc(S(N)(=O)=O)ccc21 | 16%
CN1C(=S)SC(N(O)C(=O)NC2CCCCC2)C1(C)C (stereo unspecified) | 4%
C=CCn1c(Cc2cccs2)nnc1SCC(=O)c1cccc(Br)c1 | 9%
CCn1c(Cc2cccs2)nnc1SCC(=O)Nc1ccc(OC)c(OC)c1 | 32%
CCN(CC)S(=O)(=O)c1ccc(-c2nnc(SCc3nnc(-c4ccccc4)o3)o2)cc1 | -3%
N#CC(=C1SC=CS1)c1nc(-c2ccccc2)cs1 | 16µM*[single pt active]

Compound activity deposited in PubChem by National Center for Advancing Translational Sciences (NCATS).
